miR-21 FLuc: qHTS Assay for Modulators of miRNAs and/orActivators of miR-21; 340,000 tested, under 10 active; HeLa miR-21 FLuc reporter, luciferase, 48 h; AID 2288, 2010; Potency, µM (titrated, usually from 38.3 µM), inactives show at the highest dose reporter change, positive = more light; active = well fitted rising curve with a large enough effect; inconclusive = small, poorly fitted or top-dose-only effect; inactive = no such curve, though single readings can be large or run the other way;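 also: % of control where 0% means no effect; miR-21 action dims this reporter so a rising signal means less miR-21 action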
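Compounds were titrated across several concentrations (up to approximately 40 uM) and incubated 48 hours with HeLa miR-21-FLuc reporter cells (miR-21 target sequence downstream of FLuc, endogenous miR-21). Readout was firefly luciferase luminescence after lytic detection reagent.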
Rango release inh: qHTS Assay for Inhibitors of RanGTP induced Rango (Ran-regulated importin-beta cargo) - Importin beta complex dissociation | Snurportin-1 (Homo sapiens) + GTP-binding nuclear protein Ran (Homo sapiens) + Importin … | Biochemical FRET Rango-importin beta, RanGTP-induced dissociation | Potency, µM (highest dose often 46.1 µM), for the others: top-dose activity change, negative = inhibition | actives 0.071% (n = 340,000) | AID 540253, 2011; active means falling FRET ratio curve, often poorly fitted, with flat reads before Ran was added; inconclusive means other falling curves, or compound fluorescence or quenching; inactive means flat or rising ratio curve;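 also: potency is read from the fitted curve at half-maximal effect; % of control where 0% means no effect; nearly all actives have a fitted effect of over 45% in size; -100% = wells without RanGTP and RCC1; the record marks most hits as doubtful in a second field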
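Two FRET readings bracket the reaction: one 5 min after compound meets Rango–importin beta, another 45 min after RanGTP-RCC1 (0.6 uM Ran, 0.2 uM RCC1, 2 mM GTP) is added. Only the second defines inhibition.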
GLA inh pH 4.5: qHTS Assay for Inhibitors of Human alpha-Galactosidase at pH 4.5; Alpha-galactosidase A (Homo sapiens), P06280; purified enzyme, 4-MU-alpha-Gal fluorescence, pH 4.5; activity change, negative = inhibition, % at 105 µM; 230,000 tested, under 10 active; AID 1467, 2008; inconclusive = small, poorly fitted or top-dose-only inhibition, or a rising curve; inactive = flat fitted curve, though single readings scatter; no compound was filed as active;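 also: 0% = full activity with enzyme and -100% = basal without enzyme; dose as in the result columns while the protocol names 77 µM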
Rango-impB inh: qHTS Assay for Inhibitors of Rango (Ran-regulated importin-beta cargo) - Importin beta complex formation; Potency, µM (doses to about 92.2 µM), for the others: at the top dose inhibition of complex formation; AID 540263, 2011; actives 0.031% (n = 340,000); Rango CFP/YFP FRET sensor + importin beta, 45 min; Importin subunit beta-1 (Homo sapiens), Q14974; active = rising FRET ratio curve, often small or poorly fitted; inconclusive = mostly compound fluorescence or quenching in the first reads; inactive = flat curves in all reads;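 also: potency is read from the fitted curve at half-maximal effect; 0% = DMSO wells and 100% = buffer wells lacking importin beta; nearly all actives have a fitted effect of over 15% in size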
Target sequence (Q14974 whole entry, looked up): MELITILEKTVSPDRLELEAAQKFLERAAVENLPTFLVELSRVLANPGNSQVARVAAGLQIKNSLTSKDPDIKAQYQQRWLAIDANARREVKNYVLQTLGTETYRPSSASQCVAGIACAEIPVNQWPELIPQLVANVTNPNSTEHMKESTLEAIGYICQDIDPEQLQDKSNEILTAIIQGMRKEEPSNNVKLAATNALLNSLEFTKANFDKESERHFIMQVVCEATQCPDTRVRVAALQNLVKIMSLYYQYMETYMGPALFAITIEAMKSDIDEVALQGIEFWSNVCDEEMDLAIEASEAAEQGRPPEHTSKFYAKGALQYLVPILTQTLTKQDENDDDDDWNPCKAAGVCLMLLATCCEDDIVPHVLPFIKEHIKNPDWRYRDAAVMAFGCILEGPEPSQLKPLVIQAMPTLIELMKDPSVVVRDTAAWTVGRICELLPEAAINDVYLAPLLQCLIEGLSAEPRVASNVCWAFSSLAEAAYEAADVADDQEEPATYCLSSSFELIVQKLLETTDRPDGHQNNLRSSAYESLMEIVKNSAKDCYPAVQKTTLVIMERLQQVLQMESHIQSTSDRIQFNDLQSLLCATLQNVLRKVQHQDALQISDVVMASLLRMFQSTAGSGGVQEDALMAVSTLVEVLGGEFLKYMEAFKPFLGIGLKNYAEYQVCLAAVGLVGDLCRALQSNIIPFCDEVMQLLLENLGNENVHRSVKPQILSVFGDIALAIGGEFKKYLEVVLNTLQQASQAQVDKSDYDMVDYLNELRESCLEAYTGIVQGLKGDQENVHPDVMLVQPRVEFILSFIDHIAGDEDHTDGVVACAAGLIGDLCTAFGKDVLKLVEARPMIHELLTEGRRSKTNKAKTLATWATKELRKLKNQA
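Inhibition scored from the CFP 486 nm/YFP 530 nm FRET ratio 45 min after adding 0.125 microM importin beta to 50 nM Rango biosensor preincubated 5 min with compound (room temperature, PBS with DTT, Tween-20, BSA). No-importin wells as positive control.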
An asterisk follows results filed as active. Only part of the results is shown; the hit share may differ from the screen's.

Screening COc1cccc(/C=N/NC(=O)c2ccccc2N(Cc2ccccc2)S(=O)(=O)c2ccccc2)c1OC returned miR-21 FLuc -13.7%, Rango release inh 3.4%, GLA inh pH 4.5 -10.0 and Rango-impB inh 2.2%.
Screening O=C(CCc1ccccc1Cl)Nc1cccc(S(=O)(=O)N2CCCC2)c1 returned miR-21 FLuc 0.1%, Rango release inh -2.1% and Rango-impB inh inconclusive.
CCn1c(C)nc2cc(C(=O)NNS(=O)(=O)c3c(F)cc(F)c(Cl)c3F)ccc21 was read as miR-21 FLuc 0.0%, Rango release inh 15.7%, GLA inh pH 4.5 6.5 and Rango-impB inh 2.6%.
Cc1ccc(S(=O)(=O)N2CCC(C(=O)OCC(=O)NC3(C#N)CCCCC3)CC2)cc1C was read as Rango release inh -1.9% and Rango-impB inh -3.5%.
CCC(C)CCN1C(N(C)C)=NC[C@@H]1CC(C)C (some centres undefined) was read as Rango release inh 14.6% and Rango-impB inh -5.0%.
For O=C(CNC(=O)c1ccccc1)N/N=C/C=C/c1ccccc1 the results were miR-21 FLuc 3.0%, Rango release inh -16.3% and Rango-impB inh -1.3%.
`COC(=O)CC1C(=O)NCCN1C(=O)CSc1nnnn1-c1ccc(Cl)cc1` (centres undefined) gave miR-21 FLuc -7.5%, Rango release inh -2.8%, GLA inh pH 4.5 8.4 and Rango-impB inh 1.6%.
O=C(Nc1nc2c(c(=O)[nH]1)CCCC2)C1CC1 was read as miR-21 FLuc 10.4%, Rango release inh 13.1%, GLA inh pH 4.5 8.2 and Rango-impB inh 3.7%.
Screening CC(=O)c1ccc(OCC(=O)Nc2cccc(C(=O)Nc3c(C)n(C)n(-c4ccccc4)c3=O)c2)cc1 returned Rango release inh -11.0% and Rango-impB inh -1.1%.
For COc1ccc(Oc2ncc(CN3CCN(c4ccccc4)CC3)s2)cc1 the results were miR-21 FLuc -9.9%, Rango release inh 22.4%, GLA inh pH 4.5 -1.3 and Rango-impB inh 5.7%.
Screening COCCCNC(=O)CC1C[C@H](C(=O)N2CCCCC2)[C@@]2(CCc3ccccc3)c3[nH]c4ccc(OC)cc4c3CCN2C1=O (some centres undefined) returned Rango release inh 15.5% and Rango-impB inh -2.8%.
Screening CCC(N1CCOC1=O)S(=O)(=O)c1ccc(C)cc1 (centres undefined) returned miR-21 FLuc -4.7%, Rango release inh 2.8%, GLA inh pH 4.5 -12.7 and Rango-impB inh -0.5%.
For O=C(OCC(=O)N1CCCCC1)c1cc(=O)[nH]c2ccccc12 the results were Rango release inh -3.8% and Rango-impB inh -1.2%.
COc1ccc(N(CC(=O)NCCSC2CCCCC2)S(=O)(=O)c2ccccc2)cc1OC was read as miR-21 FLuc 1.1%, Rango release inh 6.0% and Rango-impB inh 3.4%.
`COc1cccc(C2C3=C(N=c4s/c(=C\c5cccc(O)c5)c(=O)n42)c2ccccc2CC3)c1OC` (centres undefined) gave miR-21 FLuc -10.0%, Rango release inh 3.5%, GLA inh pH 4.5 -1.4 and Rango-impB inh inconclusive.
Screening CNC(=O)c1c[nH]c2ccc(S(=O)(=O)Nc3cccc(SC)c3)cc2c1=O returned miR-21 FLuc 16.3%, Rango release inh 1.2% and Rango-impB inh 0.0%.
Screening Cc1nc(Nc2nc(CSc3ccc(Cl)cc3)cc(=O)[nH]2)nc2ccccc12 returned miR-21 FLuc -1.2%, Rango release inh 20.5%, GLA inh pH 4.5 6.5 and Rango-impB inh -0.4%.
For O=C(Nc1ncc([N+](=O)[O-])s1)c1cccc([N+](=O)[O-])c1 the results were miR-21 FLuc 6.8%, Rango release inh -12.8%, GLA inh pH 4.5 6.0 and Rango-impB inh inconclusive.
CC1Cc2ccccc2N1S(=O)(=O)c1ccc(Cl)nc1 (centres undefined) was read as miR-21 FLuc -2.3%, Rango release inh 15.3%, GLA inh pH 4.5 1.7 and Rango-impB inh 3.2%.
For COc1cc2[nH]c(C(=O)N3CCc4ccccc4C3)cc2c(OC)c1OC the results were miR-21 FLuc 8.7%, Rango release inh 33.7% and Rango-impB inh 2.5%.
`N=c1n(CCN2CCOCC2)c2ccccc2n1Cc1ccccc1Br` gave miR-21 FLuc 0.8%, Rango release inh 11.3%, GLA inh pH 4.5 -1.6 and Rango-impB inh -2.8%.
Screening O=C(CN1C(=O)NC2(CCCCC2)C1=O)Nc1ccccc1Cl returned miR-21 FLuc -0.8%, Rango release inh 13.9%, GLA inh pH 4.5 -2.7 and Rango-impB inh -2.8%.
Cc1nc2c(C)cccc2c(SC(=N)N)c1CC=C(Cl)Cl was read as miR-21 FLuc -8.8%, Rango release inh -1.0%, GLA inh pH 4.5 7.6 and Rango-impB inh -0.3%.
`Cc1cc(N2C3CCC2CC(O)(c2ccc(F)cc2)C3)nc(-c2ccccc2)n1` (centres undefined) gave miR-21 FLuc 12.5%, Rango release inh 28.9%, GLA inh pH 4.5 -14.9 and Rango-impB inh 3.4%.
Screening COc1cc(/C=N/Nc2cc(C)nc(NS(=O)(=O)c3ccc(C)cc3)n2)ccc1O returned miR-21 FLuc -8.6%, Rango release inh inconclusive, GLA inh pH 4.5 -24.8 and Rango-impB inh inconclusive.
CC(=O)c1cc2c(cc1N)OCO2 was read as miR-21 FLuc -1.4%, Rango release inh -20.6%, GLA inh pH 4.5 0.0 and Rango-impB inh -7.2%.
COc1ccc(C(CNCC(O)COc2c(C)ccc(C)c2C)N(C)C)cc1 (centres undefined) was read as miR-21 FLuc -6.5%, Rango release inh 0.3% and Rango-impB inh 1.1%.
`COc1ccc(N2CCN(C(=O)c3oc4ccccc4c3C)CC2)cc1` gave miR-21 FLuc -6.2%, Rango release inh -8.4%, GLA inh pH 4.5 -4.2 and Rango-impB inh 3.4%.
COCCCNC(=O)CN(c1cc(OC)ccc1OC)S(=O)(=O)c1ccccc1 was read as miR-21 FLuc -9.7%, Rango release inh -5.9%, GLA inh pH 4.5 -0.6 and Rango-impB inh -3.5%.
`CCN(CC)C(=O)/C(=C\c1ccc2c(c1)OCO2)NC(=O)c1ccc(Br)cc1` gave miR-21 FLuc -6.3%, Rango release inh -7.2%, GLA inh pH 4.5 5.8 and Rango-impB inh inconclusive.

Reprinted from the part before: two entries, followed by the next part.
COCCCNC(=O)CN(c1cc(OC)ccc1OC)S(=O)(=O)c1ccccc1 was read as miR-21 FLuc -9.7%, Rango release inh -5.9%, GLA inh pH 4.5 -0.6 and Rango-impB inh -3.5%.
`CCN(CC)C(=O)/C(=C\c1ccc2c(c1)OCO2)NC(=O)c1ccc(Br)cc1` gave miR-21 FLuc -6.3%, Rango release inh -7.2%, GLA inh pH 4.5 5.8 and Rango-impB inh inconclusive.
For COCc1cc(C)nc(N)c1C#N the results were miR-21 FLuc -4.3%, Rango release inh 14.9%, GLA inh pH 4.5 4.4 and Rango-impB inh 0.4%.
Cc1cc(C(=O)OCC(=O)NC2CCCCC2)c(C)o1 was read as miR-21 FLuc -16.6%, Rango release inh -0.5%, GLA inh pH 4.5 1.9 and Rango-impB inh 1.0%.
Cc1cccc(OCCCN2CCCCCC2)c1 was read as miR-21 FLuc -2.2%, Rango release inh -1.7%, GLA inh pH 4.5 -2.7 and Rango-impB inh 2.0%.
O=C1c2ccccc2C(=O)N1CCCSc1nc2ccccc2o1 was read as miR-21 FLuc -18.3%, Rango release inh -10.9%, GLA inh pH 4.5 10.3 and Rango-impB inh -1.4%.
`CN(Cc1ccc(C(F)(F)F)cc1)C(=O)C1CC(=O)N(Cc2ccco2)C1` (centres undefined) gave Rango release inh -7.3% and Rango-impB inh -3.0%.
Screening COc1cc(C(=O)NCC(=O)N/N=C/c2ccc(OC(=O)c3ccco3)cc2)cc(OC)c1OC returned miR-21 FLuc 3.8%, Rango release inh 19.5%, GLA inh pH 4.5 1.2 and Rango-impB inh 1.6%.
`CC(C)(C)c1csc(NC(=O)c2c(F)c(F)c(F)c(F)c2F)n1` gave miR-21 FLuc 12.1%, Rango release inh 0.9% and Rango-impB inh 0.1%.
For CCOC(=O)C1C2C=CC3(CN(CCc4ccccc4)C(=O)C13)O2 (centres undefined) the results were miR-21 FLuc -1.6%, Rango release inh -6.8%, GLA inh pH 4.5 -2.4 and Rango-impB inh 0.4%.
Screening Cc1ccc2nc(-c3cccc(NC(=O)c4ccco4)c3)[nH]c2c1 returned miR-21 FLuc -15.5%, Rango release inh -2.8%, GLA inh pH 4.5 -16.8 and Rango-impB inh -1.8%.
For CCOc1ccc(N(C(=O)CNC(=O)c2ccco2)C(C(=O)NC2CCCC2)c2ccncc2)cc1 (centres undefined) the results were miR-21 FLuc 0.0%, Rango release inh -2.1%, GLA inh pH 4.5 9.2 and Rango-impB inh 1.1%.
O=C(Cc1ccccc1)N1CCN=C1SCc1cccc([N+](=O)[O-])c1 was read as miR-21 FLuc 0.8%, Rango release inh 14.6%, GLA inh pH 4.5 -7.1 and Rango-impB inh -3.8%.
For Cc1ccc(C(=O)N(c2ccccn2)C(C)c2ccco2)cc1 (centres undefined) the results were miR-21 FLuc -16.3%, Rango release inh 6.7%, GLA inh pH 4.5 11.0 and Rango-impB inh 0.7%.
Screening Cc1ccc(-c2c3c(=O)n(C)c(=O)n(C)c3cn2Cc2ccccc2)cc1 returned miR-21 FLuc -7.5%, Rango release inh -3.0%, GLA inh pH 4.5 1.3 and Rango-impB inh -1.7%.
Screening O=Cc1ccccc1-c1cn(CN2C(=O)c3ccccc3C2=O)nn1 returned miR-21 FLuc 2.0%, Rango release inh 3.8% and Rango-impB inh 0.1%.
For O=C(c1ccco1)N1CCN(Cc2nnnn2C2CCCCC2)CC1 the results were miR-21 FLuc -1.4%, Rango release inh 3.5% and Rango-impB inh -2.5%.
For COc1ccc(C(=O)OCC(=O)Nc2c(C)n(C)n(-c3ccccc3)c2=O)cc1 the results were Rango release inh -1.9% and Rango-impB inh -0.8%.
For Cc1c(C#N)c2ccccc2n1C the results were miR-21 FLuc -1.2%, Rango release inh 0.7%, GLA inh pH 4.5 2.6 and Rango-impB inh 0.5%.
`O=C(Cc1c[nH]c2ccccc12)NNC(=O)c1ccccc1` gave miR-21 FLuc -2.5%, Rango release inh -3.1%, GLA inh pH 4.5 -6.9 and Rango-impB inh 0.0%.
For c1ccc(-c2nc(N3CCNCC3)nc3ccccc23)cc1 the results were miR-21 FLuc -3.7%, Rango release inh -26.2%, GLA inh pH 4.5 -14.1 and Rango-impB inh inconclusive.
For COc1cccc(CNC(=O)c2cc(S(=O)(=O)N3CCOCC3)cn2C)c1 the results were miR-21 FLuc 2.2%, Rango release inh -3.3% and Rango-impB inh 3.8%.
Oc1ccc(C(c2nnnn2C2CCCCC2)N2CCOCC2)cc1 (centres undefined) was read as miR-21 FLuc -1.2%, Rango release inh 2.1%, GLA inh pH 4.5 5.8 and Rango-impB inh 0.4%.
Cc1cccc(NC(=O)NNC(=O)c2nn(C)cc2Br)c1 was read as miR-21 FLuc -12.8%, Rango release inh -7.3%, GLA inh pH 4.5 12.8 and Rango-impB inh 0.5%.
CC(C)N1CC23C=CC(O2)C(C(=O)OCc2ccccc2)C3C1=O (centres undefined) was read as miR-21 FLuc -6.3%, Rango release inh 0.9%, GLA inh pH 4.5 -4.5 and Rango-impB inh -1.9%.
For Fc1ccc(-n2c(-c3ccc4c(c3)OCO4)n[nH]c2=S)cc1Cl the results were miR-21 FLuc -69.4%, Rango release inh -7.3%, GLA inh pH 4.5 -2.5 and Rango-impB inh -1.2%.
Screening O=C(CCCc1nc(-c2ccc(Cl)cc2)no1)NC1CCCC1 returned miR-21 FLuc 8.8%, Rango release inh -0.1% and Rango-impB inh -2.1%.
O=C(CSc1n[nH]c(-c2ccccc2)n1)c1ccc(O)c(O)c1 was read as miR-21 FLuc -46.0%, Rango release inh -11.5%, GLA inh pH 4.5 -8.9 and Rango-impB inh 6.3%.
Screening Cn1ncc(Cl)c1C(=O)Nc1nnc(C2CC2)s1 returned miR-21 FLuc -8.6%, Rango release inh 1.8% and Rango-impB inh 2.5%.
CCOC(=O)C1(CCOc2ccccc2)CCN(Cc2cc(OC)c(O)cc2Cl)CC1 was read as miR-21 FLuc 19.3%, Rango release inh -8.1% and Rango-impB inh 0.9%.
